Assay outcomes: PubChem BioAssay, Fisher Drug Discovery Resource Center
NPYLR7 ag = activates Aedes aegypti NPYLR7 receptor. actives 0.15% (n = 270,000). activation, % at 10 µM. AID 1259423. HEK293T NPYLR7/Galpha15, GCaMP6s calcium fluorescence; in the data active means activation above about 40%;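 further: 0% = vehicle and 100% = reference agonist at the receptor; some compounds past the cut are filed as inactive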
NPYLR7 ag max-min = further read-out of NPYLR7 ag, marked with its call; activation, %; measured here: Max-Min RFU normalised activation; some inactives read as strong as hits;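 span of the calcium signal over five minutes; 0% = vehicle and 100% = native peptide agonist; compound fluorescence can raise it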
The depositor's hits bear a star; & = joins results of further samples.

SMILES	NPYLR7 ag	NPYLR7 ag max-min
CN(C)CCN(Cc1ccccc1)c1nc(-c2cc(Cl)cc(Cl)c2)nc2ccccc12	0	4
O=C(c1ccc(C(F)(F)F)c(F)c1)N1CCN(c2nccc(-c3ccc(-n4ccnc4)cc3)n2)CC1	20	29
C=CCn1cc(CN2CCN(c3cc(N4CCCC4)nc(N)n3)CC2)cn1	15	10
CC(C)(C)CC(C)(C)Nc1c(-c2cccc(Cl)c2)nc2ccc(Cl)cn12	7&12	12&26
O=c1[nH]cnc2cc(N3CCOCC3)c([N+](=O)[O-])cc12	-3	-6
CC12CN3CC(C)(CN(C1)C3c1ccc(Cl)cc1Cl)C2O (configuration not stated)	2	0
Cc1onc(-c2c(Cl)cccc2Cl)c1C(=O)N[C@@H]1C(=O)N2[C@@H]1SC(C)(C)[C@@H]2C(=O)O	-3&-1&-8&-7	-8&-8&-9&-5
CCSc1nn(CC(=O)Nc2cc(Cl)ccc2C)c(N)c1S(=O)(=O)c1ccc(OC)cc1	-1	-6
CSCC(=O)N1CCCCC1C(=O)Nc1ccc(-n2nc(C)cc2C)cc1 (configuration not stated)	10	11
CCOC(=O)CN1C(=O)/C(=C2\SC(=S)N(NC(=O)c3cccnc3)C2=O)c2ccccc21	-5	-4
Cc1ccc(NC(=O)CC(=O)NCC(O)c2ccccc2Cl)cc1 (configuration not stated)	2	-7
COc1ccc(CC2CCN(Cc3ccc(N(C)C)c4ccccc34)CC2)cc1	-1	7
COc1ccc(NC(=O)Cn2cc(OC)c(=O)cc2CSc2nc(C)cs2)cc1OC	-8	-10
Cc1cc(F)ccc1NC(=O)CNCCCC1CCOC1 (configuration not stated)	3	3
COc1ccc(CCN(Cc2ccc(C)o2)C(=O)CN(CCN2CCCCC2)C(=O)c2ccccc2Cl)cc1OC	-5	-14

Filtered by structure: the compounds so far with fluorine
SMILES	NPYLR7 ag	NPYLR7 ag max-min
O=C(c1ccc(C(F)(F)F)c(F)c1)N1CCN(c2nccc(-c3ccc(-n4ccnc4)cc3)n2)CC1	20	29
Cc1cc(F)ccc1NC(=O)CNCCCC1CCOC1 (configuration not stated)	3	3

Additional structures.
SMILES	NPYLR7 ag	NPYLR7 ag max-min
Cc1c(C(=O)N2c3ccccc3CC2C)sc2nc(-c3cccc([N+](=O)[O-])c3)cn12 (configuration not stated)	6	1
CC(C)(C)N(CC(=O)N1CCc2sccc2C1c1ccccc1)C(=O)c1cccc(Br)c1 (configuration not stated)	11	8
CC(=O)NC1C(Oc2ccccc2)OC(CO)C(O)C1O (configuration not stated)	-4	-5
O=C(CSc1nc2ccccc2s1)Nc1cccc2ccccc12	-2	-2
CC(C)(C)C(=O)NCCC(=O)N1CCOc2cccc(F)c21	6	7
Cc1cc(C)c(S(=O)(=O)NC(Cc2ccccc2)C(=O)Nc2nnc(-c3ccc(Cl)cc3)s2)c(C)c1 (configuration not stated)	29	26
O=c1cccnn1CCNS(=O)(=O)CCc1ccccc1	-1	-2
NCCc1nc(NCCN2CCCCC2CO)c2ccccc2n1 (configuration not stated)	1	0
C=c1ccccc1=c1[nH]/c(=C/c2cccc([N+](=O)[O-])c2)c(=O)o1	0	4
O=C(CSc1ccccc1)N1CCN(c2nccc(-c3cccc(C(F)(F)F)c3)n2)CC1	-3	5
c1ccc(-c2nc(Sc3nnnn3-c3ccccc3)nc3ccccc23)cc1	4	4
Cc1ccc2oc(-c3cccc(NC(=O)c4ccccc4)c3)nc2c1	0	-5
OCc1cc2ccccc2nc1/C=C/c1ccccc1	0	-2
CC1SC(c2cccc(F)c2)N(CCC(=O)N2CCOCC2)C1=O (configuration not stated)	4	12
CCOC(=O)C1=C(C)N=c2s/c(=C\c3ccc(O)c(Br)c3)c(=O)n2C1c1ccc(OC)cc1 (configuration not stated)	23	28
CCOc1cc2c(cc1NC(C)C(=O)Nc1ccccc1Cl)OC(C)C2 (configuration not stated)	-1	7
COCC1(C(=O)N2CCCC(Nc3ccccc3)C2)CCC1 (configuration not stated)	-2	-6
O=C(Cc1ccccc1Br)Nc1cc(-c2ccccc2)nn1-c1ccccc1Cl	17	10
COc1ccccc1-n1c(SCC(=O)N2CCOCC2)nc2c(c1=O)SCC2	-7	-9
Cc1cnc2n(c1=O)C(CC(=O)NCc1ccccn1)CS2 (configuration not stated)	1	0
Clc1ccc(Cc2nc(CSCCc3ccccc3)cs2)cc1Cl	24	18
Cc1nc(Nc2ccc(NC(=O)COc3ccc(Cl)cc3)cc2)cc(-n2cccn2)n1	-3	-5
CCOC(=O)c1cccc(NC(=O)N[C@H](c2nnc3c(C(F)(F)F)cccn23)C(C)C)c1	-8	-14
COc1ccc(S(=O)(=O)NCCc2nnc3ccc(SCC(=O)N4CCCCC4)nn23)cc1	-1	-11
O[C@@H]1CN(Cc2cc3n(n2)CCNC3)CC[C@H]1c1ccc2ccccc2c1	6	4
Cc1[nH]c(=O)n(C)c(=O)c1CCc1nnc(SCc2ccc(Cl)cc2)o1	-8	-12
CC(NS(C)(=O)=O)C(=O)N1CCc2onc(-c3ccccc3F)c2C1 (configuration not stated)	-1	-4
CCOc1ccccc1C1NC(=O)CCC1[N+](=O)[O-] (configuration not stated)	8	12
CS(=O)(=O)N1CCN(S(=O)(=O)c2cc(Cl)ccc2Cl)CC1	0	6
COc1ccc(-c2cc(NCCc3cccc(OC)c3)n3ncnc3n2)cc1	14	9
CC(c1ccc2c(c1)OCCO2)N(C)Cc1nc(-c2cnccn2)no1 (configuration not stated)	14&2	0&-3
Cc1ccsc1C(CN)N(C)C (configuration not stated)	1	1
COc1ccc(-n2c(=O)c3ccccc3n(CC(=O)NCc3cccnc3)c2=O)cc1	16	20
COc1ncccc1C(=O)Nc1cnc2n1CCCC2	24	12
COc1cc(Br)cc(/C=C2\SC(=Nc3cc(C)cc(C)c3)NC2=O)c1O	-7	-13
c1cncc(CNCc2ccc3c(c2)OCO3)c1	1	-2
O=S(=O)(NN=Cc1cccs1)c1ccc(Br)cc1	-8	-12
COc1cc(C(=O)NCCc2csc(-c3cccc(F)c3)n2)c([N+](=O)[O-])cc1OC	6	5
COc1ccc(OC)c(NC(=O)N2CCCCC2CN2CCOCC2)c1 (configuration not stated)	14	10
CSc1ccc(NC(=O)N(Cc2ccc(OS(=O)(=O)c3cccc(C(F)(F)F)c3)cc2)C(C)C)cc1	14	13
CC(=O)Oc1c(-c2ccccc2)oc2c(CC=C(C)C)c3c(c(OC(C)=O)c2c1=O)C=CC(C)(C)O3	-14	-18
O=C(O)CSCC(=O)Nc1cc(SCCO)cc([N+](=O)[O-])c1	9	4
CCCCN(C(=O)Nc1ccc(Cl)cc1)C(C)c1nc2ccccc2c(=O)n1-c1cc(OC)cc(OC)c1Br (configuration not stated)	21	20
Cc1ccc(NC(=O)CSc2nc(=O)n3cc(C)ccc3n2)cc1	1	-3
COc1ccc(S(=O)(=O)Nc2cc(Cl)ccc2C(=O)NCc2ccccc2)cc1OC	1	2

19 structures from above, ordered by SMILES length, rising:
SMILES	NPYLR7 ag	NPYLR7 ag max-min
Cc1ccsc1C(CN)N(C)C (configuration not stated)	1	1
c1cncc(CNCc2ccc3c(c2)OCO3)c1	1	-2
COc1ncccc1C(=O)Nc1cnc2n1CCCC2	24	12
O=S(=O)(NN=Cc1cccs1)c1ccc(Br)cc1	-8	-12
CCOc1ccccc1C1NC(=O)CCC1[N+](=O)[O-] (configuration not stated)	8	12
COc1ccc(OC)c(NC(=O)N2CCCCC2CN2CCOCC2)c1 (configuration not stated)	14	10
Cc1ccc(NC(=O)CSc2nc(=O)n3cc(C)ccc3n2)cc1	1	-3
CS(=O)(=O)N1CCN(S(=O)(=O)c2cc(Cl)ccc2Cl)CC1	0	6
CC(NS(C)(=O)=O)C(=O)N1CCc2onc(-c3ccccc3F)c2C1 (configuration not stated)	-1	-4
COc1cc(Br)cc(/C=C2\SC(=Nc3cc(C)cc(C)c3)NC2=O)c1O	-7	-13
O[C@@H]1CN(Cc2cc3n(n2)CCNC3)CC[C@H]1c1ccc2ccccc2c1	6	4
COc1ccc(S(=O)(=O)Nc2cc(Cl)ccc2C(=O)NCc2ccccc2)cc1OC	1	2
Cc1nc(Nc2ccc(NC(=O)COc3ccc(Cl)cc3)cc2)cc(-n2cccn2)n1	-3	-5
COc1ccc(S(=O)(=O)NCCc2nnc3ccc(SCC(=O)N4CCCCC4)nn23)cc1	-1	-11
COc1cc(C(=O)NCCc2csc(-c3cccc(F)c3)n2)c([N+](=O)[O-])cc1OC	6	5
CCOC(=O)c1cccc(NC(=O)N[C@H](c2nnc3c(C(F)(F)F)cccn23)C(C)C)c1	-8	-14
CSc1ccc(NC(=O)N(Cc2ccc(OS(=O)(=O)c3cccc(C(F)(F)F)c3)cc2)C(C)C)cc1	14	13
CCCCN(C(=O)Nc1ccc(Cl)cc1)C(C)c1nc2ccccc2c(=O)n1-c1cc(OC)cc(OC)c1Br (configuration not stated)	21	20
CC(=O)Oc1c(-c2ccccc2)oc2c(CC=C(C)C)c3c(c(OC(C)=O)c2c1=O)C=CC(C)(C)O3	-14	-18

(continued)
SMILES	NPYLR7 ag	NPYLR7 ag max-min
Cc1ccc(C(N)=O)c(OCc2ccc(F)cc2Br)c1	-1	-4
O=C(CNC(=O)c1ccc2c(c1)OCCO2)N=Nc1c(O)[nH]c2ccc([N+](=O)[O-])cc12	-4	-5
O=C1CN(C(=O)C2COc3ccccc3O2)c2ccccc2N1 (configuration not stated)	-1	-2
CN(CC1CCN(CCc2ccc(F)cc2)CC1)C(=O)c1cccc(-c2ccco2)c1	11	1
CC(NC(=O)Cc1ccccc1[N+](=O)[O-])c1ccco1 (configuration not stated)	6	2
COc1ccc(OC)c(C2CCCN2Cc2nc3ccsc3c(=O)[nH]2)c1 (configuration not stated)	14	6
C=Cc1ccc(CSc2nc3cc(C(=O)OCC)ccc3n2CCCOCC)cc1	10	8
O=C(CN1CN(c2ccccc2)C2(CCN(C(=O)c3ccc(Br)cc3)CC2)C1=O)NCc1ccc(F)cc1	22	20
COc1cccc(CN2CCN(c3ccccc3C)C(=O)C2C)c1 (configuration not stated)	11	16
Cc1nc(N(C)Cc2cccnc2)c2cnn(C)c2n1	-5	-6
O=C(Nc1ccc(N2CCN(C(=O)c3ccccn3)CC2)nc1)c1ccc(F)cc1	-3	1
Cn1nc(NC(=O)c2cc3ccccc3o2)c2c1NC(=O)CC2c1ccco1 (configuration not stated)	-10	-23
O=C(Nc1ncc(Cc2cccc(C(F)(F)F)c2)s1)c1cccs1	2	7
Cc1cc(CN2CCC(Oc3ccccc3C(=O)N3CCCCC3)CC2)oc1C	10	-2
CSc1cc(C2CC2c2ccc(Cl)cc2)on1 (configuration not stated)	14	12
Cc1cc2oc(=O)cc(C)c2cc1NC(=O)c1ccc[nH]1	0	13
CN(C)[C@@H]1Cc2ccccc2[C@H]1NC(=O)c1cn(-c2ccccc2)nn1	3	1
Cc1c(C(=O)OC2CCCCC2)[nH]c2c1C(=O)CC(C)(C)C2	10	5
O=C(c1cc(=O)[nH]c2ccccc12)N1CC(c2ccncc2)C1	4	3
CC12CN3CC(C)(CN(C1)C3C(O)C(O)C(O)C(O)CO)C2 (configuration not stated)	12	3
CC(C)Oc1ccc(NC(=O)c2cc(Br)cn2C)cc1	4	5
Cc1ccc(Cl)cc1-c1noc(C2CC(=O)N(C3CC3)C2)n1 (configuration not stated)	20	7
COc1ccc(-c2nc3ccc(C)cn3c2NC(=O)c2ccc(Br)cc2)cc1	-4	2
CCCn1c(SC(C)c2nnnn2-c2ccccc2)n[nH]c1=O (configuration not stated)	0	12
CC(C)OC(=O)c1cc2c(=O)[nH]c(C(F)(F)F)nc2o1	2	1
O=C(CNC(=O)C1CC1(c1ccccc1)c1ccccc1)Nc1cccc(Cl)c1 (configuration not stated)	-3	-8
O=C(CNC(=O)c1ccc(Cl)cc1)N=Nc1c(O)n(CCc2ccccc2)c2ccccc12	0	-3
O=C(Nc1nc2c(s1)CCCC2)c1ccco1	0	-10
COC(=O)N1CCOCC1c1cc(C(=O)NCc2ccccc2)no1 (configuration not stated)	1	-1
CN(Cc1ncccc1C(=O)O)Cc1noc2c1CCCC2	-2	-3
CCC(NC(=O)c1ccco1)C1c2cc(OC)c(OC)cc2CCN1Cc1cccc(F)c1 (configuration not stated)	8	8
C=CCN(Cc1ccccc1C)C(=O)[C@H](N)C1CCCCC1	4	-7
COCCn1cc(NC(=O)NCc2ccccc2)c2ccccc21	15	6
COc1ccc(F)cc1CS(=O)Cc1cccc2c1OCCO2 (configuration not stated)	4	-1
CCc1c(C)nc(SCc2nc(-c3ccccc3)oc2C)[nH]c1=O	-3	-6
C=CCNC(=O)N1CCOC(CN2CCN(c3ccc(C)c(C)c3)CC2)C1 (configuration not stated)	6	7
Cc1noc(C)c1S(=O)(=O)N1CCN(Cc2ccc(Br)cc2)CC1	5	3
O=C1NC(=O)C(=C2C=C(c3ccccc3)OC3=C2CCCC3)C(=O)N1	-4	-11
CCN(CC)S(=O)(=O)c1ccc(OC)c(N2CCN(S(=O)(=O)c3cccc(C#N)c3)CC2)c1	21	19
COC(=O)c1ccccc1NC(=O)c1cc(=O)c2ccccc2o1	3	1
Cc1nn(C)c(Cl)c1CNC(C)c1cnn(-c2cccc(F)c2)c1C (configuration not stated)	5	1
O=C(c1cn(Cc2ccccc2F)nn1)N1CCC(OCc2cccnc2)CC1	6	6
CC(C)Cc1nc(C(=O)O[C@H]2C(=O)OCC2(C)C)cs1	-6	46
CNS(=O)(=O)c1ccc(CNC(=O)c2ccc(S(=O)C(C)C)cc2)cc1 (configuration not stated)	4	1
O=[N+]([O-])c1ccc(CSc2ccc3nnc(-c4cccnc4)n3n2)cc1	-1	-2

Only part of the results is shown (hit frequency here may not be typical).
